Epigenetic derep = derepresses silenced GFP reporter in murine cells; murine LDR cells, GFP reporter derepression, 30 h; Potency, µM (titrated, usually from 53.9 µM), without a hit: at the highest dose GFP activation, hits mostly activators; 280,000 compounds, 0.2% hits; AID 1865; further: % of control where 0% means no effect; nearly all actives have a fitted effect of over 60% in size
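Derepression of a silenced CMV-GFP reporter in murine LDR cells is scored by enumerating GFP-positive cells with a laser-scanning microplate cytometer after 30 hours of treatment at 37 C.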
HTT aggregate = mutant huntingtin aggregation inhibition. PC12 HttQ103-GFP aggregates, Acumen cytometry, 40 h. 220,000 compounds, 1.1% hits. Potency, µM (highest dose often 46.1 µM), inactives show at the top dose activity change, negative = inhibition, usual class: inhibitors; further: on the % scale 0 is the no-effect control and ±100 the full control effect; nearly all actives have a fitted effect of over 60% in size
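Multiplexed with ATP-based cell death, this channel scores GFP aggregates in PC12 cells expressing inducible HTTex1-Q103-GFP. Induction used 100 nM tebufenozide; compounds were tested in concentration series.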
Lamin A splicing = modulators of lamin A splicing. HeLa LMNA splicing GFP/RFP minigene ratio, 48 h. Potency, µM (titrated, usually from 46.1 µM), for inactives: at the top dose ratio change, negative = inhibition, most hits filed as inhibitors. 200,000 compounds, 0.01% hits; active means well fitted inhibition curve with a large enough effect in the signal ratio, with a control signal flat, not every such curve was filed as active; inconclusive means small, poorly fitted or top-dose-only effect, or effect the other way, or a change in a side signal; the % refers to the signal ratio; further: on the % scale 0 is the no-effect control and ±100 the full control effect
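S3 HeLa cells stably expressing lamin A-EGFP splicing minigene plus DsRed2, 600 cells/well, 48 h compound exposure at 37C. Laser-scanning cytometry; analysed as GFP (500-530 nm)/RFP (575-640 nm) total intensity ratio; 0.5% DMSO vehicle.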
NPSR antag = blocks cAMP signaling of the human neuropeptide S receptor; Q6W5P4; CHO-NPSR cells, cAMP TR-FRET, antagonist mode; Potency, µM (series often up to 38.3 µM), for inactives: at the top dose activity change, negative = inhibition, most hits filed as inhibitors; 220,000 compounds, 1% hits; AID 1461; further: on the % scale 0 is the no-effect control and ±100 the full control effect; nearly all actives have a fitted effect of over 50% in size; many of its hits are not listed in these tables
Target sequence (Q6W5P4 whole entry, looked up): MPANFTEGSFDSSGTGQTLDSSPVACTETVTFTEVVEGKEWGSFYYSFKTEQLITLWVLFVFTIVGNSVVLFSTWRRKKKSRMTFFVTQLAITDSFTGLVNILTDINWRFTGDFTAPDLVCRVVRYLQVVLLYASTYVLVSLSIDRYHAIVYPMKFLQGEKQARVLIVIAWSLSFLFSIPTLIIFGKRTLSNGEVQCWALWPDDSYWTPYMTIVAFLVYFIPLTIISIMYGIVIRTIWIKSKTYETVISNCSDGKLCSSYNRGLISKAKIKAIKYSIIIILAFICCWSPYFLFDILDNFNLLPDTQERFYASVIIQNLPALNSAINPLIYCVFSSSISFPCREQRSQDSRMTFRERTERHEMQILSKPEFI
KinaseGlo FLuc = counter-screen: inhibitors of Kinase-Glo firefly luciferase. Q27757. AID 1379. Kinase-Glo luciferase, ATP luminescence, 8 min. 200,000 compounds, 0.28% hits. Potency, µM (series often up to 38.3 µM), for the others: at the highest dose activity change, negative = inhibition, usual class: inhibitors; further: on the % scale 0 is the no-effect control and ±100 the full control effect; nearly all actives have a fitted effect of over 60% in size
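Kinase-Glo luciferase light output from ATP and luciferin was measured with 10 uM ATP, within the enzyme's linear range. Buffer: 50 mM imidazole pH 7.2, 50 mM KCl, 7 mM MgCl2, 0.01% Tween 20, 0.05% BSA; luminescence read after 8 min at ambient temperature.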
Numbers without * were called inactive; u = inconclusive; x = not tested or not shown; & = joins results of further samples; [ ] = dose if it differs, or a comment. Unless noted, the call rests on the fitted dose curve; in most records, active means well fitted curve in the direction sought with a large enough effect; inconclusive means small, poorly fitted or top-dose-only effect, or another doubt; inactive means no such curve, though single readings can be large; an effect the other way counts as inactive or inconclusive. Potency means the concentration at half of the fitted maximal effect.

Preview:
[1] O=c1[nH]cnc2scc(-c3ccccc3)c12
[2] O=C(Nc1ccccc1)N1CCOCC1

screen / no. | 1 | 2
KinaseGlo FLuc | -0.3% | -6.8%
Lamin A splicing | 11.5% | -0.1%
NPSR antag | -0.4%[46.1 µM] | 0.7%[46.1 µM]
HTT aggregate | -9.9% | -3.3%
Epigenetic derep | -0.9% | -0.3%

This part in full, previewed entries included:
[1] O=c1[nH]cnc2scc(-c3ccccc3)c12
[2] O=C(Nc1ccccc1)N1CCOCC1
[3] NS(=O)(=O)c1ccc(NC(=O)c2ccccc2C(=O)N2CCCCC2)cc1
[4] O=c1ccn([C@@H]2O[C@H](CO)[C@@H](O)[C@H]2O)c(=O)[nH]1
[5] O=C1CC(=O)CC(c2ccccc2)C1
[6] CCOC(=O)c1c(C)n(C)c2ccc(OC)c(NC(=O)CN3CCN(C(=O)c4ccco4)CC3)c12

screen / no. | 1 | 2 | 3 | 4 | 5 | 6
KinaseGlo FLuc | -0.3% | -6.8% | -1.2% | -0.8%&1.3% | 2.1% | 4.6%
Lamin A splicing | 11.5% | -0.1% | 2.9% | u | 20.9%[46 µM] | -4.0%
NPSR antag | -0.4%[46.1 µM] | 0.7%[46.1 µM] | -0.8%[46.1 µM] | 1.2% | 7.3% | 21.8%[46.1 µM]
HTT aggregate | -9.9% | -3.3% | -5.4% | -2.1% | -0.1% | -0.1%
Epigenetic derep | -0.9% | -0.3% | -1.0% | 2.7%&-1.2% | -0.2% | -0.8%

[7] COc1ccc(OCC(=O)Nc2cc(OC)cc(OC)c2)cc1
[8] Oc1ccc2ccccc2c1CNc1cnc2ccccc2c1
[9] CCN(CC)CCCN1C(=O)C(O)=C(C(=O)c2cc3cccc(OC)c3o2)C1c1ccncc1 (configuration not stated)
[10] O=[N+]([O-])c1ccc(-c2nc(-c3cccs3)c(-c3cccs3)[nH]2)cc1
[11] Nc1nc2ccc(OC(F)(F)F)cc2s1
[12] Cc1nc(NCC2CCCO2)[nH]c(=O)c1CCC(C)C (configuration not stated)

screen / no. | 7 | 8 | 9 | 10 | 11 | 12
KinaseGlo FLuc | -6.2% | -0.8% | 1.5% | 0.5% | -0.5% | -2.7%
Lamin A splicing | -13.1% | -22.0% | 6.4% | u | u | 6.5%
NPSR antag | -10.0%[46.1 µM] | -19.9%[46.1 µM] | u | -28.7%[46.1 µM] | 4.4% | -9.9%[46.1 µM]
HTT aggregate | 1.8% | u | -0.6% | u | -16.2%&-15.8% | -10.6%
Epigenetic derep | -3.1% | -0.8% | 1.0% | 22.5% | -1.7% | 0.0%

[13] CCC(C)(C)NC(=O)C(c1ccc(C)o1)N(Cc1cccs1)C(=O)Cn1nnc2ccccc21 (configuration not stated)
[14] CC(=O)OCC(=O)[C@@]1(O)[C@H](C)C[C@@H]2[C@H]3CCC4=CC(=O)C=C[C@]4(C)[C@]3(F)[C@@H](O)C[C@@]21C
[15] Nc1nnc(-c2cccc(Cl)c2Cl)c(N)n1
[16] CN=C(Nc1cc(C)nn1-c1ccccc1)c1ccccc1F
[17] COc1ccc(/C=N/NC(=O)CO/N=C(\C)c2cccs2)cc1
[18] CCc1ccc(OCCCOc2ccc(C=O)cc2)cc1

screen / no. | 13 | 14 | 15 | 16 | 17 | 18
KinaseGlo FLuc | -1.2% | -0.6%[17.1 µM] | -0.2%&-2.4%&2.7% | 11.2% | 1.8% | -2.1%
Lamin A splicing | 9.9% | u | u | 8.4% | 7.4% | u
NPSR antag | u | x | 14.7% | u | -25.7%[46.1 µM] | -21.1%[46.1 µM]
HTT aggregate | 6.6%[9.22 µM] | 11.8%[20.6 µM] | 16.6%&8.5% | 2.6% | -7.6%[9.22 µM] | -6.8%
Epigenetic derep | 7.9% | 1.1%[16.9 µM] | 2.2%&-1.2%&-1.1%&-0.9% | -0.1% | -3.2% | 0.0%

Full records, quoted from the list. Values in the order: KinaseGlo FLuc, Lamin A splicing, NPSR antag, HTT aggregate, Epigenetic derep
Profile of CCc1ccc(OCCCOc2ccc(C=O)cc2)cc1 = -2.1%, u, -21.1%[46.1 µM], -6.8%, 0.0%
Profile of CCC(C)(C)NC(=O)C(c1ccc(C)o1)N(Cc1cccs1)C(=O)Cn1nnc2ccccc21 (configuration not stated) = -1.2%, 9.9%, u, 6.6%[9.22 µM], 7.9%
Profile of CN=C(Nc1cc(C)nn1-c1ccccc1)c1ccccc1F = 11.2%, 8.4%, u, 2.6%, -0.1%
Profile of Nc1nnc(-c2cccc(Cl)c2Cl)c(N)n1 = -0.2%&-2.4%&2.7%, u, 14.7%, 16.6%&8.5%, 2.2%&-1.2%&-1.1%&-0.9%
Profile of COc1ccc(/C=N/NC(=O)CO/N=C(\C)c2cccs2)cc1 = 1.8%, 7.4%, -25.7%[46.1 µM], -7.6%[9.22 µM], -3.2%

Next records
[19] CCC(C)NC(=O)C1CCN(S(=O)(=O)c2cccnc2)CC1 (configuration not stated)
[20] O=C(O)C1C2C=CC(C2)C1C(=O)NCCC1=CCCCC1 (configuration not stated)
[21] CC(C(=O)Nc1ccc(Cl)cc1)c1ncc(C(F)(F)F)cc1Cl (configuration not stated)
[22] N#Cc1nc(Cc2cccc3ccccc23)oc1N1CCN(c2ccccc2)CC1
[23] CCOC(=O)/C(=C\c1ccc([N+](=O)[O-])o1)NC(=O)c1ccccc1
[24] Oc1ccc2cccnc2c1

screen / no. | 19 | 20 | 21 | 22 | 23 | 24
KinaseGlo FLuc | 0.2% | -0.4% | 2.2% | 1.2% | 1.2% | -0.2%
Lamin A splicing | -17.2% | 0.0% | u | 7.7% | u | 15.1%
NPSR antag | 0.9%[46.1 µM] | 4.5%[46.1 µM] | -8.6%[46.1 µM] | -1.1%[46.1 µM] | -6.1%[46.1 µM] | -0.9%[46.1 µM]
HTT aggregate | 17.0% | 4.9% | 10.1% | -17.6% | 2.3%[1.84 µM] | -8.5%
Epigenetic derep | 0.0% | 0.0% | -0.9% | 7.3% | -0.3% | -0.8%

[25] CC(=O)O[C@@]1(C(C)=O)CCC2C3C=C(C)C4=CC(=O)CCC4(C)C3CCC21C (some centres not stated)
[26] CCN1CCN(c2cc3c(cc2F)c(=O)c(C(=O)O)cn3C2CC2)CC1
[27] O=C1CC(N2CCN(c3nc4ccccc4s3)CC2)C(=O)N1c1cccc(F)c1 (configuration not stated)
[28] Fc1cccc(CN2CCCCCCC2)c1
[29] CCOC(=O)N1CCN(C(=O)c2ccc3c(=O)n(-c4ccc(F)cc4)c(=S)[nH]c3c2)CC1
[30] CCOc1cc(/C=N/n2cnnc2)ccc1OC(=O)c1cccc([N+](=O)[O-])c1

screen / no. | 25 | 26 | 27 | 28 | 29 | 30
KinaseGlo FLuc | -7.7% | -1.1%&-6.0% | -4.0% | 15.5% | 9.5% | -1.1%
Lamin A splicing | x | u | -7.0% | 1.7% | 16.2% | 17.6%
NPSR antag | x | -20.7% | -11.5%[46.1 µM] | -20.3%[46.1 µM] | -25.5%[46.1 µM] | -6.4%[46.1 µM]
HTT aggregate | x | -2.3%&14.5% | -14.4% | -7.4%[9.22 µM] | 16.5%[9.22 µM] | -7.0%
Epigenetic derep | -1.3% | -2.5%&0.0% | -1.0% | 1.2% | -4.5% | 0.0%

[31] COc1ccc2nc(NC(=O)CCc3ccc(OC)c(OC)c3)sc2c1
[32] Cn1c(SCc2c(Cl)cccc2Cl)nnc1-c1ccc2nonc2c1
[33] CC(=O)NC(CCC(=O)O)C(=O)O (configuration not stated)
[34] Cc1sc2c(c1C)CN(C(C)(C)C)CN2C(=O)c1ccccc1
[35] CC12CCC(C(=O)N(CC(O)CN3CCCCC3)C1=O)C2(C)C (configuration not stated)

screen / no. | 31 | 32 | 33 | 34 | 35
KinaseGlo FLuc | -0.4% | x | -7.5% | -2.2% | 9.0%
Lamin A splicing | x | x | x | -12.5% | -14.5%
NPSR antag | -7.5% | 13.0%[7.67 µM] | x | -17.6%[46.1 µM] | -3.3%[46.1 µM]
HTT aggregate | 4.5% | -13.5%[9.22 µM] | x | 0.9%[9.22 µM] | 2.6%
Epigenetic derep | -0.1% | -0.3% | 8.0% | 10.5% | 0.9%

Screens as filed in PubChem BioAssay.

An excerpt. The share of hits here may be higher or lower than overall.
